2A StopGo: lowers the luciferase signal of an FMDV 2A StopGo reporter | human cells with a luciferase reporter of 2A StopGo recoding; control for the full effect not named in the record | Potency, µM (highest dose often 57.9 µM), for inactives: at the top dose signal change, negative = less light | 410,000 tested, 1.2% active; active = well fitted falling curve with a large enough effect; inconclusive = small, poorly fitted or top-dose-only effect; inactive = no such curve, though single readings can be large or run the other way; tested in HEK293T cells; also: % is scaled to controls: 0 for no effect and ±100 for the full control effect; nearly all actives have a fitted effect of over 45% in size; luciferase light after 4 h
Marburg entry inh: inhibitors of Marburg virus binding or cell entry; Marburg virus pseudotyped entry inhibition, cell reporter; control for the full effect not named in the record; about a third of the inactives were read at about 46 µM; Potency, µM (top dose mostly 37.8 µM), without a hit: at the top dose activity change, negative = inhibition, hits mostly inhibitors; 300,000 tested, 1.8% active; active = well fitted inhibition curve with a large enough effect; inconclusive = small, poorly fitted or top-dose-only effect, or effect the other way; inactive = flat fitted curve, though single readings scatter; tested in HEK293 cells; about a fifth of its hits are not listed in these tables; also: % is scaled to controls: 0 for no effect and ±100 for the full control effect; luciferase read-out
Cruzain inh Det: inhibitors of Trypanosoma cruzi cruzain with detergent. purified cruzain, Z-FR-AMC fluorescence, 0.01% Triton. Potency, µM, for inactives: max response, negative = inhibition, hits mostly inhibitors. 200,000 tested, 0.43% active. P25779;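 also: plate controls were neutral wells for no effect and buffer without enzyme for full effect; nearly all actives have a fitted effect of over 40% in size; top concentration of the series not given in the record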
Target sequence (P25779 123-467 limits assumed): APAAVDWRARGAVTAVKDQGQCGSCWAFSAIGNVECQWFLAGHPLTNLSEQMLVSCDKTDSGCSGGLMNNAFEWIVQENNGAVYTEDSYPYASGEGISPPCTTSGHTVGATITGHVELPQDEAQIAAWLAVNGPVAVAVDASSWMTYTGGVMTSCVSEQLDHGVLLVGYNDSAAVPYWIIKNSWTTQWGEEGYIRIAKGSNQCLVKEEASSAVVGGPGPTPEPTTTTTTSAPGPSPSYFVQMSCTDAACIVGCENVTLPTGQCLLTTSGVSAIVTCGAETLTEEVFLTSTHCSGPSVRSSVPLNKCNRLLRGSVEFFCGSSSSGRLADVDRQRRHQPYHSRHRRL
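Purified cruzain (1.5 nM final) was preincubated with compounds for 15 min at room temperature in 100 mM sodium acetate pH 5.5, 5 mM DTT, 0.01% Triton X-100. Reaction started with 2 uM Z-FR-AMC; AMC fluorescence change over 60 s gave activity.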
RE007 growth inh: less growth of the S. pombe RE007 Vpr strain; S. pombe RE007 Vpr strain, BacTiter-Glo ATP luminescence, 24 h; control for the full effect not named in the record; Potency, µM (doses to about 92.2 µM), for the others: at the top dose activity change, negative = less growth; 360,000 tested, 0.21% active; AID 651644; active = well fitted falling curve with a large enough effect; inconclusive = small, poorly fitted or top-dose-only effect; inactive = no such curve, though single readings can be large or run the other way;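 also: % is scaled to controls: 0 for no effect and ±100 for the full control effect; nearly all actives have a fitted effect of over 50% in size; the assay follows cell death caused by Vpr and the record does not say whether a fall means rescue or toxicity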
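Fission yeast strain RE007, carrying one chromosomally integrated HIV-1 vpr copy, was seeded at OD 0.01 in PMG+AL medium with 23 nL pinned compound. After 24 h at 30 °C and 99% humidity, viability was read by BacTiter-Glo luminescence.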
SARS PLpro yeast: blocks SARS-CoV papain-like protease in a yeast assay; Potency, µM (doses to about 32.9 µM), without a hit: at the highest dose activity, positive = growth rescue; 330,000 tested, 0.19% active; S. cerevisiae expressing SARS-CoV PLpro, growth rescue; control for the full effect not named in the record; active means well fitted rising curve with a large enough effect; inconclusive means small, poorly fitted or top-dose-only effect; inactive means no such curve, though single readings can be large or run the other way; also: 0% is about no effect; nearly all actives have a fitted effect of over 55% in size; growth read by luminescence after 48 h
Lassa entry inh: Lassa virus entry inhibition | Lassa virus pseudotype entry inhibition, cell reporter; control for the full effect not named in the record | Potency, µM (highest dose often 37.9 µM), without a hit: top-dose activity change, negative = inhibition, hits mostly inhibitors | 300,000 tested, 1.2% active; active means well fitted inhibition curve with a large enough effect; inconclusive means small, poorly fitted or top-dose-only effect, or effect the other way; inactive means flat fitted curve, though single readings scatter; tested in HEK293 cells; also: % is scaled to controls: 0 for no effect and ±100 for the full control effect; nearly all actives have a fitted effect of over 50% in size; luciferase read-out
Cruzain inh noDet: cruzain (T. cruzi) inhibition without detergent | P25779 | purified cruzain, Z-FR-AMC fluorescence, no detergent | Potency, µM, for the others: max response, negative = inhibition, hits mostly inhibitors | 200,000 tested, 2.3% active;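 also: plate controls were enzyme without inhibitor for no effect and buffer without enzyme for full effect; nearly all actives have a fitted effect of over 40% in size; top concentration of the series not given in the record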
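Detergent-free condition (0.00005% Triton X-100) in acetate buffer pH 5.5 with DTT. 1.5 nM enzyme and compound were pre-mixed 15 min, then 2 uM Z-FR-AMC substrate added; reaction progress from fluorescence change between first and third reads (60 s).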
NS1 inh: influenza NS1 inhibition; S. cerevisiae slowed by influenza A NS1, growth recovery by OD600; Potency, µM (highest dose often 46.1 µM), for inactives: top-dose activity, positive = more growth; 270,000 tested, 0.4% active; active means well fitted rising curve with a large enough effect; inconclusive means small, poorly fitted or top-dose-only effect; inactive means no such curve, though single readings can be large or run the other way; also: nearly all actives have a fitted effect of over 50% in size
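Growth recovery, yeast-based: influenza A NS1 expressed in S. cerevisiae causes slow growth, and suppressors are detected by OD600. The parent strain without NS1 is used as positive control.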
* marks the source's active call; other numbers are inactive results; ? = inconclusive; · = no result given; & = joins results of further samples; [ ] = remark or other dose. Unless noted, calls follow the shape of the dose curve; as a rule, active = well fitted curve in the direction sought with a large enough effect; inconclusive = small, poorly fitted or top-dose-only effect, or another doubt; inactive = no such curve, though single readings can be large; an effect the other way counts as inactive or inconclusive. Potency is read from the fitted curve at half-maximal effect.

| SMILES | SARS PLpro yeast | Cruzain inh noDet | Marburg entry inh | NS1 inh | 2A StopGo | Lassa entry inh | RE007 growth inh | Cruzain inh Det |
| --- | --- | --- | --- | --- | --- | --- | --- | --- |
| CCOC(=O)Cn1cnc2c(C#N)c3n(c2c1=O)CCCCC3 | -5.9% | -4.6% | -0.5% | 3.6% | -17.8% | 0.6% | 3.3% | 1.4% |
| CCOC(=O)C1CCN(C(=O)CN(Cc2ccccc2)S(C)(=O)=O)CC1 | 0.8% | 17.0% | -1.3% | 14.1µM* | · | -25.9% | 10.4% | 1.3% |
| COc1ccc(CCNC(=O)CCCc2nnc3n(C)c(=O)c4sccc4n23)cc1OC | -6.2% | · | 17.1%[46.1 µM] | -0.9% | 24.4% | -14.0% | -10.3% | · |
| O=C(NCCC1=CCCCC1)c1ccc(Cl)c(S(=O)(=O)N2CCCCC2)c1 | -6.1% | · | · | -58.8% | ? | · | 2.0% | · |
| COc1c(C)cc(Br)cc1C(=O)O | 4.5% | -6.2% | -10.3% | -12.3% | -26.1% | 27.5%[14.3 µM] | 10.7% | 3.7% |
| CCOC(=O)c1cc(-c2ccc(OC)c(S(=O)(=O)NCc3ccccc3Cl)c2)on1 | · | -0.6% | · | · | 26.3% | 29.8%[46.1 µM] | · | -1.6% |
| Cc1cc(C)c(NC(=O)COc2nncc3ccccc23)c(C)c1 | 5.3% | -3.4% | 24.7% | 7.9% | 3.2% | 4.1% | 6.5% | -1.4% |
| O=C(NCCc1ccc(Cl)cc1)C1CCC(=O)N(C2CCCCCC2)C1 (centres undefined) | -2.6% | · | -6.0%[46.1 µM] | -7.6% | -5.7% | 4.9%[46.1 µM] | 12.2% | · |
| Cc1cc(OCC(=O)Nc2ccc(N3CCN(C)CC3)cc2)ccc1Cl | -8.4% | · | · | 2.5% | 22.4% | · | -3.8% | · |
| Cc1ccc2cc(CN(CC(C)C)S(=O)(=O)c3ccccc3)c(=O)[nH]c2c1 | -2.2% | · | · | 6.4% | -10.7% | · | -5.6% | · |
| COc1ccc(C(=O)NCCN2CCCC2)cc1OC | 3.3% | 0.8% | 17.3% | -22.1% | 23.1% | 15.8% | 15.7% | 4.1% |
| Cc1nc2scc(C)n2c(=O)c1S(=O)(=O)NCCc1ccc(Cl)cc1 | -1.9% | · | -10.7% | -8.3% | 17.5% | 1.9% | 2.4% | · |
| COc1ccc2nc3c(nc2c1)CCCC3 | 0.2% | · | 1.9% | -2.0% | 15.4% | 19.8% | 10.0% | · |
| CCOC(=O)c1c(C)[nH]c(CCC(=O)NCc2ccccc2C)c1C | · | -4.7% | · | · | 5.2% | -3.0%[46.1 µM] | · | 3.0% |
| CCCOc1ccc(C(C)(O)CN2CCOCC2)cc1 (centres undefined) | -0.6% | 3.1% | 0.2% | -14.0% | -23.7% | 19.9% | 11.4% | 1.0% |
| CCn1ncc(/C=C/C(=O)c2ccccc2)c1C | -8.5% | -8.6% | 18.3% | 0.7% | 0.0% | 4.2% | ? | -4.7% |
| COC(=O)c1cc(C(=O)NCCC(C)C)cc([N+](=O)[O-])c1 | 3.1% | · | 10.0%[46.1 µM] | 3.0% | -7.2% | 2.0% | 15.4% | · |
| CC1(C)CC(=O)C=C(N2CCCC2)C1 | 1.6% | 7.7% | 21.2% | 5.6% | · | 6.5% | 5.8% | -1.5% |
| CC1(C)CC(CCNC(=O)c2ccco2)CC(C)(C)N1 | 7.2% | -1.3% | -0.3% | 2.7% | -2.6% | 6.5% | 2.2% | 7.4% |
| CCOC(=O)C1Oc2ccccc2C(c2ccc(OC)cc2)=C1C(=O)OC (centres undefined) | 5.6% | 26.6% | · | · | ? | · | 1.0% | 0.1% |
| CCOC(=O)N1CCN(c2c(N3CCc4ccccc4C3)c(=O)c2=O)CC1 | -1.8% | -10.5% | · | -10.3% | -3.1% | · | -2.4% | -5.5% |
| O=C(Cn1nc(C(=O)O)c2ccccc2c1=O)Nc1ccc(F)cc1F | -0.5% | · | -7.9%[46.1 µM] | 9.6% | -2.1% | -1.6%[46.1 µM] | 10.3% | · |
| COCCCn1c(N)c(C(=O)Nc2sc3c(c2C(=O)OC)CCCC3)c2nc3ccccc3nc21 | -1.3% | 15.8% | 2.1% | 0.7% | · | 14.3% | -1.6% | 8.0% |
| Cc1cc(C(F)(F)F)n2nc(-c3cnn(C)c3C(F)(F)F)cc2n1 | 2.0% | 4.4% | 1.9% | -6.8% | 0.8% | -3.6% | 2.3% | -0.3% |
| CCc1cccc(C)c1NC(=O)CN1C(=O)NC(CCc2ccccc2)C1=O (centres undefined) | -4.5% | · | 5.3%[46.1 µM] | · | -15.6% | -17.1%[46.1 µM] | 1.4% | · |
| CC(NC(=O)CN1C(=O)COc2ccccc21)c1ccccc1 (centres undefined) | 2.4% | -18.4% | 0.9% | -3.1% | · | -0.3% | -12.2% | 1.5% |
| Nc1ccc2oc(-c3cccs3)nc2c1 | -5.4% | -8.2% | 0.0% | -10.5% | 63.1%[activator] | -0.3% | -6.9% | -5.1% |
| COc1cccc(-n2nnc3c(=O)n(Cc4ccc(Cl)cc4)cnc32)c1 | -12.8% | 8.2% | 2.5% | 6.9% | 31.2%[activator] | ? | -15.8% | -2.1% |
| COc1cccc(C(=O)CSc2nnc(COc3cccc4cccnc34)o2)c1 | -4.5% | -8.6% | -1.9%&-20.3% | -21.2% | · | -7.6% | -5.9% | -4.3% |
| O=C(Cc1ccc(Cl)cc1)N1CCN(c2ccc(F)cc2)CC1 | 1.1% | · | ? | -45.1% | 3.2% | -12.3%[46.1 µM] | 8.2% | · |
| CCOCCCNC(=O)c1ccc(-n2c(-c3ccccc3)cc3c2CCCC3)cc1 | · | -26.8% | · | · | -6.2% | ? | · | -4.2% |
| CCN(C(=O)Cc1c(C(=O)O)n(CC)c2ccccc12)c1cccc(C(F)(F)F)c1 | -0.6% | · | · | -0.2% | -6.2% | · | 4.2% | · |
| COc1ccc(CCNC(=O)CCCCn2c(=O)c3ccccc3n(Cc3cc(C)ccc3C)c2=O)cc1OC | · | -11.4% | -26.4%[46.1 µM] | · | 1.1% | 7.7%[46.1 µM] | · | -2.6% |
| Cc1ccc(-n2nc3c(c2NC(=O)c2ccc(S(=O)(=O)N4CCOCC4)cc2)CSC3)c(C)c1 | 12.1% | 6.5% | -2.9% | -10.5% | · | ? | 6.9% | -1.8% |
| CC(C)Nc1nc(Oc2cccc(Cl)c2Cl)cc(C(F)(F)F)n1 | -12.0% | 4.7% | ? | 0.2% | -1.4% | -1.9% | -9.0% | -6.2% |
| Cc1ccc(OCC(=O)NCc2ccccc2)c([N+](=O)[O-])n1 | -19.9% | 5.9% | 0.3% | -14.3% | 17.2% | ? | 3.8% | -1.7% |
| CCOC(=O)C(CCCCCCP(=O)(c1ccccc1)c1ccccc1)NC(C)=O (centres undefined) | 0.4% | · | -24.9% | 0.9% | -17.4% | 24.4% | -14.3% | · |
| Nc1nc(SCC(=O)N2CCCC2)[nH]c(=O)c1-c1ccccc1 | 0.7% | -6.2% | -12.2% | 10.8% | -9.7% | -17.5% | -12.7% | -0.4% |
| N#Cc1c(-c2ccccc2)cc(C2CC2)nc1N | -6.2% | 0.2% | ? | -34.9% | -20.8% | -5.2% | -13.9% | 12.6% |
| NC(=O)c1ccc(Br)c(S(=O)(=O)N2CCCCC2)c1 | -2.2% | 6.1% | -0.9% | 0.4% | -3.5% | 11.5% | 9.6% | -4.3% |
| Cc1ccc([N+](=O)[O-])cc1NC(=O)C[n+]1ccccc1 | 0.7% | · | · | 2.0% | -13.4% | · | -6.3% | · |
| COC(=O)c1ccc(OCCCCN2CC(C)OC(C)C2)cc1 (centres undefined) | -2.3% | · | -0.6%[46.1 µM] | -1.0% | -16.2% | -3.9%[46.1 µM] | 8.3% | · |
| O=C(NCc1ccc2c(c1)OCO2)C1CCCN1S(=O)(=O)c1ccc(Cl)cc1 (centres undefined) | 0.3% | · | 2.6%[46.1 µM] | 0.6% | 6.8% | -3.1% | -0.7% | · |
| CC1CCN(C(=O)CN2C(=O)NC3(CCC(C)CC3)C2=O)CC1 (centres undefined) | -6.6% | · | 27.5% | · | -10.7% | 0.7% | 2.6% | · |
| CCOC(=O)CNC(=O)CSc1nc2c(C)cccc2cc1CC | -0.4% | · | 0.9%[46.1 µM] | -4.3% | -6.2% | 10.1%[46.1 µM] | 11.4% | · |
| COc1ccc(-c2ccnc3nc(/N=C/N(C)C)nn23)cc1 | -1.3% | · | 0.0%[46.1 µM] | · | 8.4% | -14.6% | 1.3% | · |
| COc1ccccc1NC(=O)/C=C/c1ccc2c(c1)OCO2 | -2.9% | · | -12.7% | · | 50.8%[activator] | ? | ? | · |
| O=C(Cn1cc(SCc2c(F)cccc2Cl)c2ccccc21)N1CCCCCC1 | · | -23.7% | · | · | 7.8% | ? | · | -7.4% |
| O=C(O)C1C2C=CC(C2)C1C(=O)NCc1ccc2c(c1)OCO2 (centres undefined) | -1.6% | -3.4% | 4.5% | -4.1% | 4.3% | 19.8% | -17.6% | 0.1% |
| O=C(O)C1CC=CCC1C(=O)Nc1ccc2c(c1)OCCO2 (centres undefined) | -16.2% | 23.7% | -2.5%[46.1 µM] | -1.7% | -9.7% | 4.5% | 25.0% | -1.4% |
| Cc1cc(N2C(=O)C3C4C=CC(C4)C3C2=O)ccc1NC(=O)c1cccs1 (centres undefined) | 15.7% | -4.6% | ? | 9.0% | -19.5% | 21.3% | 1.2% | 0.6% |

Two compounds drawn at random from the list so far, as already listed:
| SMILES | SARS PLpro yeast | Cruzain inh noDet | Marburg entry inh | NS1 inh | 2A StopGo | Lassa entry inh | RE007 growth inh | Cruzain inh Det |
| --- | --- | --- | --- | --- | --- | --- | --- | --- |
| COc1cccc(-n2nnc3c(=O)n(Cc4ccc(Cl)cc4)cnc32)c1 | -12.8% | 8.2% | 2.5% | 6.9% | 31.2%[activator] | ? | -15.8% | -2.1% |
| COc1cccc(C(=O)CSc2nnc(COc3cccc4cccnc34)o2)c1 | -4.5% | -8.6% | -1.9%&-20.3% | -21.2% | · | -7.6% | -5.9% | -4.3% |

Assay outcomes deposited in PubChem by National Center for Advancing Translational Sciences (NCATS).
